Source: PubChem
Cruzain inh noDet – blocks cruzain activity in detergent-free assay. purified cruzain, Z-FR-AMC fluorescence, no detergent. AID 1476. Potency, µM, for the others: max response, negative = inhibition, most hits filed as inhibitors. hit rate 2.3% among 200,000; active means well fitted curve in the direction sought with a large enough effect; inconclusive means small, poorly fitted or top-dose-only effect, or another doubt; inactive means no such curve, though single readings can be large; an effect the other way counts as inactive or inconclusive;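 further: plate controls were enzyme without inhibitor for no effect and buffer without enzyme for full effect; nearly all actives have a fitted effect of over 40% in size; top concentration of the series not given in the record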
Target sequence (P25779 123-467 limits assumed): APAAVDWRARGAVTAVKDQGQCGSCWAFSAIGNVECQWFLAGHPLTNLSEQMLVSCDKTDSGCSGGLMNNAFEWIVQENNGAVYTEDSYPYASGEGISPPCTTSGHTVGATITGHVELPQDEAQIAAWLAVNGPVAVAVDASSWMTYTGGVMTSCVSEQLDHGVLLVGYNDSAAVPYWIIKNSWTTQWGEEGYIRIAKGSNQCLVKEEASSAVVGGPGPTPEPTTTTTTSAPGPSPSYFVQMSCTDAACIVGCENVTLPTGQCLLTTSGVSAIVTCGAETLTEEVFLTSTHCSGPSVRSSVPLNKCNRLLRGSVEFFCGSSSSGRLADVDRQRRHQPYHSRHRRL
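Purified cruzain at 1.5 nM, pre-incubated 15 min with compound at room temperature in 100 mM sodium acetate pH 5.5, 5 mM DTT, 0.00005% Triton X-100. Reaction started with 2 uM Z-FR-AMC; AMC fluorescence increase over 60 s gives rate.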
Marburg entry inh – inhibitors of Marburg virus binding or cell entry. Marburg virus pseudotyped entry inhibition, cell reporter; control for the full effect not named in the record; about a third of the inactives were read at about 46 µM. Potency, µM (doses to about 37.8 µM), without a hit: at the top dose activity change, negative = inhibition, usual class: inhibitors. hit rate 1.8% among 300,000. AID 540276; active = well fitted inhibition curve with a large enough effect; inconclusive = small, poorly fitted or top-dose-only effect, or effect the other way; inactive = flat fitted curve, though single readings scatter; tested in HEK293 cells; about a fifth of its hits are not listed in these tables; further: on the % scale 0 is the no-effect control and ±100 the full control effect; luciferase read-out
SARS PLP yeast – inhibitors of SARS-CoV papain-like protease in yeast; S. cerevisiae expressing SARS-CoV PLpro, growth rescue; control for the full effect not named in the record; Potency, µM (doses to about 32.9 µM), without a hit: at the highest dose activity, positive = growth rescue; hit rate 0.19% among 330,000; AID 485353; further: 0% is about no effect; nearly all actives have a fitted effect of over 55% in size; growth read by luminescence after 48 h
NS1 function inh – influenza NS1 inhibition | S. cerevisiae slowed by influenza A NS1, growth recovery by OD600 | AID 2326 | hit rate 0.4% among 270,000 | Potency, µM (titrated, usually from 46.1 µM), without a hit: at the highest dose activity, positive = more growth; further: actives are rising curves; nearly all actives have a fitted effect of over 50% in size
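A cell-based growth assay was used: compounds that relieve NS1-induced slow growth of budding yeast raise OD600. Assay medium was yeast nitrogen base with ammonium sulphate and -URA supplement, pH 6.0, with 2% galactose.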
StopGo reporter – lowers the luciferase signal of an FMDV 2A StopGo reporter; human cells with a luciferase reporter of 2A StopGo recoding; control for the full effect not named in the record; Potency, µM (highest dose often 57.9 µM), without a hit: top-dose signal change, negative = less light; hit rate 1.2% among 410,000; active = well fitted falling curve with a large enough effect; inconclusive = small, poorly fitted or top-dose-only effect; inactive = no such curve, though single readings can be large or run the other way; tested in HEK293T cells; further: on the % scale 0 is the no-effect control and ±100 the full control effect; nearly all actives have a fitted effect of over 45% in size; luciferase light after 4 h
Lassa entry inh – Lassa virus entry inhibition. Potency, µM (series often up to 37.9 µM), without a hit: top-dose activity change, negative = inhibition, most hits filed as inhibitors. AID 540256. Lassa virus pseudotype entry inhibition, cell reporter; control for the full effect not named in the record. hit rate 1.2% among 300,000; active means well fitted inhibition curve with a large enough effect; inconclusive means small, poorly fitted or top-dose-only effect, or effect the other way; inactive means flat fitted curve, though single readings scatter; tested in HEK293 cells; further: on the % scale 0 is the no-effect control and ±100 the full control effect; nearly all actives have a fitted effect of over 50% in size; luciferase read-out
Cruzain Triton – inhibitors of Trypanosoma cruzi cruzain with detergent | purified cruzain, Z-FR-AMC fluorescence, 0.01% Triton | hit rate 0.43% among 200,000 | AID 1478 | Potency, µM, inactives show max response, negative = inhibition, hits mostly inhibitors; active means well fitted curve in the direction sought with a large enough effect; inconclusive means small, poorly fitted or top-dose-only effect, or another doubt; inactive means no such curve, though single readings can be large; an effect the other way counts as inactive or inconclusive;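 further: plate controls were neutral wells for no effect and buffer without enzyme for full effect; nearly all actives have a fitted effect of over 40% in size; top concentration of the series not given in the record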
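15 min RT preincubation of 1.5 nM cruzain with compound, then 2 uM Z-FR-AMC added; kinetic AMC fluorescence, 60 s delta. Triton X-100 0.01%, pH 5.5.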
RE007 growth inh – less growth of the S. pombe RE007 Vpr strain; S. pombe RE007 Vpr strain, BacTiter-Glo ATP luminescence, 24 h; control for the full effect not named in the record; Potency, µM (highest dose often 92.2 µM), for the others: at the top dose activity change, negative = less growth; hit rate 0.21% among 360,000; active = well fitted falling curve with a large enough effect; inconclusive = small, poorly fitted or top-dose-only effect; inactive = no such curve, though single readings can be large or run the other way;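 further: on the % scale 0 is the no-effect control and ±100 the full control effect; nearly all actives have a fitted effect of over 50% in size; the assay follows cell death caused by Vpr and the record does not say whether a fall means rescue or toxicity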
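Fission yeast strain RE007, carrying one chromosomally integrated HIV-1 vpr copy, was seeded at OD 0.01 in PMG+AL medium with 23 nL pinned compound. After 24 h at 30 °C and 99% humidity, viability was read by BacTiter-Glo luminescence.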
Numbers without * were called inactive; u = inconclusive; x = not tested or not shown; & = joins results of further samples; [ ] = another dose, or the depositor's remark. Unless noted, the call rests on the fitted dose curve; in most records, active means well fitted rising curve with a large enough effect; inconclusive means small, poorly fitted or top-dose-only effect; inactive means no such curve, though single readings can be large or run the other way. Potency means the concentration at half of the fitted maximal effect.

SMILES | Cruzain inh noDet | Marburg entry inh | SARS PLP yeast | NS1 function inh | StopGo reporter | Lassa entry inh | Cruzain Triton | RE007 growth inh
COc1ccc(-c2csc(-c3cccs3)n2)c(OC)c1 | x | u | -7.8% | x | -16.9% | u | x | -7.8%
O=C(Nc1ccc(-c2nc3ccccc3[nH]2)cc1)c1cccc(N2C(=O)CCC2=O)c1 | -7.6% | u | -5.5% | 7.7% | 3.4% | 20.1% | -6.5% | 3.4%
Cn1c(C(=O)N2CCN(c3ccc(Cl)cc3)CC2)cc2c(=O)[nH]c3ccccc3c21 | u | u | 0.5% | -33.3% | -7.8% | -19.6% | -8.4% | 4.5%
CCCC(=O)Nc1ccccc1-c1nnc(SC)[nH]c1=O | -8.0% | x | 6.3% | -3.2% | -3.5% | x | 3.3% | 10.0%
CCC(C)c1ccccc1NC(=O)c1cc2cccc([N+](=O)[O-])c2[nH]1 (stereo not given) | x | u | -12.4% | -86.7% | u | u | x | 44.2%
O=C(Cn1c(=O)n(Cc2ccco2)c(=O)c2oc3ccccc3c21)Nc1ccc(F)cc1F | -4.1% | x | x | x | -4.8% | -13.2%[46.1 µM] | -6.1% | x
Cc1cc(=O)oc(C)c1C(=O)O | 4.4% | 8.1% | -1.0% | -1.3% | 15.0% | 16.1% | -7.1% | 2.6%
O=c1cc(-c2c(F)c(F)c(F)c(F)c2F)oc2ccccc12 | -7.3% | 18.3µM* | -17.6% | 0.1% | x | u | -3.9% | 3.5%
COc1cc2c(cc1OC)C(COc1ccc(F)cc1)N(C(=O)c1ccccc1F)CC2 (stereo not given) | 28.1% | x | x | x | -11.0% | u | 4.0% | x
Cc1cc(NCCCn2ccnc2)n2ncc(-c3ccccc3)c2n1 | 10.8% | u | -8.8% | -4.6% | -3.5% | 4.47µM* | -2.1% | -7.7%
O=C(CNC(=O)c1ccc(Br)cc1)NCC(=O)OCC(=O)c1ccccc1 | x | 8.8%[46.1 µM] | 0.8% | x | -2.8% | 1.2%[46.1 µM] | x | -18.1%
Cc1ccc(C)c(N2CCN(CCCNC(=O)c3cnn(-c4cccc(Cl)c4)c3C3CCN(C(=O)OC(C)(C)C)CC3)CC2)c1 | -18.1% | x | x | x | -10.4% | 12.6µM* | -2.2% | x
Nc1ccc([N+](=O)[O-])cc1C(=O)NNC(=O)c1ccco1 | x | x | -3.5% | 0.5% | -10.9% | x | x | 1.2%
O=C(CC1CCCCC1)Nc1nc2ccccc2s1 | x | -5.6%[46.1 µM] | -1.0% | 1.3% | 26.4% | u | x | -13.2%
CSc1cccc(NC(=O)CC2Oc3ccccc3NC2=O)c1 (stereo not given) | x | x | 0.8% | 4.3% | -10.2% | x | x | 2.4%
Cc1c(Cl)cccc1NC(=S)NCCc1ccc(S(N)(=O)=O)cc1 | -0.2% | u | -8.4% | 4.6% | -4.8% | -12.2%[46.1 µM] | 2.3% | 13.1%
COC(=O)C1=CO[C@@H](C)[C@@H]2CN3CC[C@]4(C(=O)Nc5ccccc54)[C@@H]3C[C@H]12 | -7.1% | 15.4%&-6.7% | -19.0% | -23.1% | -16.3% | -17.2% | -2.2% | -0.5%
C=CCN(c1ccccc1)S(=O)(=O)c1cccc(C(=O)Nc2cc(C)ccn2)c1 | x | 8.91µM* | -0.9% | x | 16.4% | 17.8µM* | x | -22.2%
O=C(NC(Cc1ccccc1)C(=O)NCCc1ccccn1)c1cccs1 (stereo not given) | x | x | 0.8% | 2.2% | -8.8% | x | x | 5.4%
CCCN(CC(=O)Nc1ccccc1C)C(=O)c1ccc(S(=O)(=O)N2CCCCC2)cc1 | x | -3.3% | -0.1% | -13.3% | 10.7% | -0.1% | x | -3.5%
COc1ccc(C[C@H]2CN3C(=NC[C@@H]3C(C)C)N2CCNC(=O)CCC2CCCCC2)cc1 | x | x | 0.9% | 3.7% | -14.9% | x | x | 7.4%
O=C(COC(=O)Cc1c[nH]c2ccccc12)Nc1ccccc1C(F)(F)F | x | -6.1% | -1.4% | x | -11.8% | 0.2% | x | -6.9%
CC(=O)N1CCN(c2ccc(NC(=O)c3cccc(Cl)c3Cl)cc2)CC1 | x | u | -4.2% | 7.2% | -8.7% | 17.6%[46.1 µM] | x | 8.2%
Nc1ccc(SCC(=O)Nc2cccc([N+](=O)[O-])c2)cc1 | x | 2.6% | -0.5% | x | 9.5% | u | x | -4.6%
Cn1nnnc1SCCCNCc1cccc(OCc2ccccc2)c1 | -3.8% | u | x | x | 1.6% | 6.1%[46.1 µM] | -1.7% | x
SMILES | Cruzain inh noDet | Marburg entry inh | SARS PLP yeast | NS1 function inh | StopGo reporter | Lassa entry inh | Cruzain Triton | RE007 growth inh
Cc1ccc(/C=N/Nc2cc(C)nc(NCc3ccccc3)n2)cc1 | x | u | -5.0% | -54.1% | -23.4% | u | x | -14.6%
CCN(CC)S(=O)(=O)c1cc(C(=O)Nc2ccccc2[N+](=O)[O-])ccc1Cl | 3.9% | u | 14.4% | 7.3% | -19.4% | u | -3.9% | -0.7%
CCN1CCN(Cc2c(O)ccc3c(=O)c(Oc4ccccc4C(C)C)c(C(F)(F)F)oc23)CC1 | 2.5% | 22.4%[46.1 µM] | x | x | -1.5% | 22.2%[46.1 µM] | -2.7% | x
CCCOc1ccc(-c2csc3ncn(Cc4ccc(C(=O)O)cc4)c(=O)c23)cc1 | x | x | -1.9% | 2.0% | -9.4% | x | x | 1.8%
CC(C)c1ccc(NC(=O)CSc2nc3ccccc3nc2Cc2ccccc2)cc1 | -3.4% | x | x | x | 16.1% | 29.3%[46.1 µM] | 3.4% | x
CC(C)c1ccc(/C=c2\sc3nc(-c4ccncc4)nn3c2=O)cc1 | u | u | -5.0% | 16.2% | 7.5% | 5.9% | -0.7% | -1.8%
Cc1ccccc1Cn1c(SCc2ccc(C(=O)NCCc3ccccc3)cc2)nc2ccncc21 | 2.3% | -29.9%[46.1 µM] | x | x | -11.2% | x | -8.6% | x
Cc1cc(C)cc(NC(c2cccc(Cl)c2)c2nnc(-c3ccccc3)o2)c1 (stereo not given) | u | u | x | x | 12.9% | -29.6%[46.1 µM] | -2.3% | x
CCOc1ccc(Nc2nc3c(c(=O)[nH]2)CCCC3)cc1 | u | -4.5% | 3.3% | -0.8% | 33.9%[activator] | -17.8% | -3.1% | 19.5%
Cc1ccc(OCC(=O)NCCCNC(=O)c2cccnc2)cc1C | x | 1.1%[46.1 µM] | -5.4% | 9.0% | -4.0% | 4.5%[46.1 µM] | x | 3.2%
CCN(CC(=O)NC(C)C)C(=O)c1ccc(Cl)cc1 | -2.4% | 11.4% | -6.8% | 5.3% | -1.9% | 0.8% | 4.2% | -7.7%
CCCN1C(=O)c2ccccc2NC1c1ccc(Cl)c(Cl)c1 (stereo not given) | x | x | -1.2% | -9.3% | -5.1% | x | x | 2.5%
O=C(Cn1cc([N+](=O)[O-])cn1)NCc1ccc(-n2cccn2)cc1 | x | -3.1%[46.1 µM] | -2.4% | -4.3% | 7.0% | -14.2% | x | -0.9%
O=C(NCCc1nc2ccccc2[nH]1)/C(=C/c1ccco1)NC(=O)c1ccco1 | -1.9% | 1.9% | 6.4% | -3.2% | 0.0% | 5.2% | -8.6% | 1.8%
O=C(NCCS(=O)(=O)N1CCN(c2ccccc2)CC1)c1ccco1 | x | 14.0% | -1.5% | x | 6.0% | -3.8%[46.1 µM] | x | 1.8%
COc1ccc(CCNC(=O)Cn2nnc(C(=O)Nc3ccc(Br)cc3)c2N)cc1OC | x | 0.0%[46.1 µM] | 2.4% | -6.1% | -6.7% | -24.7%[46.1 µM] | x | -6.8%
O=C(Nc1ccc([N+](=O)[O-])cc1)c1cccc(S(=O)(=O)Nc2cccnc2)c1 | x | u | 4.1% | -3.8% | 9.9% | u | x | -4.0%
Cc1ccc(S(=O)(=O)NNC(=O)c2cccc(O)c2)cc1 | x | 11.2%[46.1 µM] | 0.0% | 7.5% | 5.8% | -0.1%[46.1 µM] | x | -19.5%
COCC(=O)Nc1ccccc1C(=O)Nc1ccc(OC)cc1 | 10.3% | -25.5% | 2.4% | -0.9% | 55.6%[activator] | -1.6% | 2.1% | -9.3%
Cc1cc(C(=O)N2CCC(C(=O)O)CC2)c(C(F)(F)F)o1 | x | 24.9% | 0.3% | -3.1% | -0.2% | -13.3% | x | 3.3%
CC(=O)Nc1ccc(S(=O)(=O)NC2CCS(=O)(=O)C2)cc1Cl (stereo not given) | x | x | 1.5% | 3.6% | -2.6% | u | x | 1.0%
CCS(=O)(=O)Nc1ccc(C2=NN(C(=O)c3ccco3)C(c3ccc(C)cc3)C2)cc1 (stereo not given) | 9.3% | u | 23.2% | u | u | 16.4µM* | -11.7% | 8.1%
Cc1ccc2c(c1)cc1c(=O)n(CC(=O)NC3CCCCC3)nc(C)n12 | 5.7% | u | x | x | 1.0% | x | -0.2% | x
COc1ccc(NC(=O)C(=O)NCCCO)cc1Cl | x | 5.2%[46.1 µM] | 2.3% | x | 35.1%[activator] | 8.5% | x | 1.5%
CCOc1cc(/C=N/NC(=O)c2cccnc2)ccc1OCC(=O)N1CCOCC1 | -11.2% | -4.0% | u | 4.4% | -10.4% | 9.0% | -6.8% | 8.9%
C=CCNC(=O)C(C#N)c1nc2ccccc2nc1N1CCN(Cc2ccccc2)CC1 (stereo not given) | -3.1% | 6.9% | 0.7% | 1.2% | -25.5% | 4.8% | 3.7% | -12.4%
O=C(CCSc1nc(-c2ccco2)cc(C(F)(F)F)n1)NCC1CCCO1 (stereo not given) | 14.6% | -11.0% | 26.3% | -1.3% | 0.0% | -6.6% | 0.8% | 17.4%
Cc1ccc(-n2nc3c(N4CCC(C(=O)NC(C)C)CC4)nnc(C)c3c2C)cc1 | 0.7% | x | x | x | -9.9% | 20.6%[46.1 µM] | -2.6% | x
